FGF22 binding – shifts melting point of recombinant human FGF22 | Q9HCT0 | recombinant FGF22 thermal shift, SYPRO orange fluorescence; percent of sucrose octasulfate shift, DMSO zero | calls only at 9.99 µM | 340,000 tested, 1.5% active | AID 651658;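 active means melting point raised past a set limit in the mean and every replicate; three in four hits are not shown here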
Target sequence (Q9HCT0 whole entry, looked up): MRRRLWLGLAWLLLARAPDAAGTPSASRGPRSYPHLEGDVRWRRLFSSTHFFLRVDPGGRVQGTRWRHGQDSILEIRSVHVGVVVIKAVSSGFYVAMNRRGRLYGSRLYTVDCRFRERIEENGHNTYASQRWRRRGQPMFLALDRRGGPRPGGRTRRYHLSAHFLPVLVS
E coli growth – inhibitors of Escherichia coli growth; OD600, 23 h; stronger effect = lower value; OD600 absorbance (test concentration not listed); 330,000 tested, 0.21% active; AID 1053175;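 active means OD600 absorbance below the run mean of sample wells minus 3.6 SD, in any replicate, cut at about 0.56 in these data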;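 further: stock transfer was 300 nL into about 60 µL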
UCH37 DUB inh – inhibitors of human deubiquitinating enzyme UCH37; Q9Y5K5; purified proteasome/UCH37, Ub-AMC cleavage fluorescence; inhibition, % (no concentration beside the values); 330,000 tested, 0.33% active;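 active means mean of two replicates above 20%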;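 further: 0% = compound-free wells with enzyme and 100% = wells lacking proteasome; stock transfer was 100 nL into about 20 µL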
Target sequence (Q9Y5K5 whole entry, looked up): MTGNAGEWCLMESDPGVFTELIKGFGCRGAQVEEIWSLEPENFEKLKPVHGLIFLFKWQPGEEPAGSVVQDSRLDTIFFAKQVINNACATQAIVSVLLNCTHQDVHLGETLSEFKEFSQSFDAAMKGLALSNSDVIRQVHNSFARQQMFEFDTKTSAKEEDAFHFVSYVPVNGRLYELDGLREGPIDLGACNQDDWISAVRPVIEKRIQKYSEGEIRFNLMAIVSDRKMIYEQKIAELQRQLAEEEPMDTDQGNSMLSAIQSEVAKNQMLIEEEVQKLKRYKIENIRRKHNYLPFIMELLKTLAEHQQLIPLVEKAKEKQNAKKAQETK
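system = Proteasome-associated human UCH37 deubiquitinase | amount = 0.15 nM proteasome as dispensed | medium = pH 7.4 Tris-HCl (50 mM) with ovalbumin, ATP-MgCl2, DTT | incubation = 30 min preincubation with enzyme, 25 min cleavage at room temperature | detection = AMC fluorescence 355/460 nm | read-out basis = percent inhibition | controls = no-proteasome and no-compound wells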
HNF4A DNA FP – change in binding of human HNF4 alpha to DNA | P41235 | HNF4a-FITC DNA binding, fluorescence polarization, 1 h | activity change, % at 10 µM | 360,000 tested, 0.3% active | AID 1224865; in the data active means activity change above about 30%, passing the limit was not always enough;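 further: controls were the assay level and a saturating level of protein; the project sought stronger binding though the title names inhibitors; some compounds called inactive have numbers as strong as hits; positive values seem to mean higher polarization but the record does not say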
Target sequence (P41235 whole entry, looked up): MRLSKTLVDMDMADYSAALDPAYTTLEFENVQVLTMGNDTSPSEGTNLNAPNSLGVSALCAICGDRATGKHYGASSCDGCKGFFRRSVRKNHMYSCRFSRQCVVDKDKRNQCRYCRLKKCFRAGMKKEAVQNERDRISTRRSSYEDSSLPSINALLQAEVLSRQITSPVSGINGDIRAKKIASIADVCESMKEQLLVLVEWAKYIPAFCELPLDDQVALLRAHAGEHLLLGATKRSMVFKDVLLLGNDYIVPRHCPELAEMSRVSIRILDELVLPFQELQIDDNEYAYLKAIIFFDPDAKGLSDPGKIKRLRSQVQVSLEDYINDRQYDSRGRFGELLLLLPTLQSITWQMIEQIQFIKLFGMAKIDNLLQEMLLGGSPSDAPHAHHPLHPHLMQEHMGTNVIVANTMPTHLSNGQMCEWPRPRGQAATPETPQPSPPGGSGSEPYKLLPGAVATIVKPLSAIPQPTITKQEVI
rRNA inh HTS – selective bacterial rRNA inhibition in E. coli. E. coli WT GFP vs humanized-ribosome RFP mutants, fluorescence, 24 h; stronger effect = lower value; DMSO median 0, no signal -100. GFP signal change (wild-type ribosome), % (concentration not given with the values). 350,000 tested, 1.6% active. AID 720706;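 active means significant combined selectivity score with lowered wild-type GFP, culture density cut under 30%, mutant RFP and density less affected; inactive means any of these conditions unmet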; further: one replicate is shown; some compounds called inactive have numbers as strong as hits
ALR H2O2 inh – blocks human ALR sulfhydryl oxidase activity; P55789; purified ALR, DTT oxidation, H2O2 HRP-luminol luminescence; inhibition, % (concentration not given with the values); 290,000 tested, 3.8% active;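 active means mean and each replicate at 75% or more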;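 further: stock transfer was 7.5 nL into about 7.5 µL; 0% = neutral wells and 100% = wells with inactivated enzyme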
B2AR ag – agonists of human beta-2 adrenergic receptor inducing internalization. P07550. Am2.2-beta2AR cells, FAP receptor internalization, flow cytometry; reference of the scale not given here. response, % (no concentration beside the values). 340,000 tested, 0.43% active;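 active means response above a set limit, near 3 SD of response in nonfluorescent compounds, cut at about 42% in these data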;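 further: stock transfer was 100 nL into about 11 µL; a reference agonist was the positive control; negative values mostly stem from fluorescent compounds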
rRNA inh HTS OD600 – further read-out of rRNA inh HTS, marked with its call; OD600 change, %; measured here: OD600 growth;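 optical density of the mix in the first replicate; 0 = DMSO median and -100 = no signal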
rRNA inh HTS RFP – further read-out of rRNA inh HTS, marked with its call; RFP signal change, %; measured here: RFP humanized mutant strains;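 first replicate; 0 = DMSO median and -100 = no signal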
* = called active by the depositor; i = inactive; nt = not tested or not shown; + = active, no number; & = joins results of further samples.

SMILES	FGF22 binding	E coli growth	UCH37 DUB inh	HNF4A DNA FP	rRNA inh HTS	rRNA inh HTS OD600	rRNA inh HTS RFP	ALR H2O2 inh	B2AR ag
COc1ccc(Cl)cc1NC(=O)CN1C(=O)NC(C)(Cc2ccc(OC)c(OC)c2)C1=O (stereo unspecified)	i	0.7	1.9	0.2	-5	-6	-2.4	-15	-10
CC(=O)c1c(C)oc2ccc(NS(=O)(=O)c3cccs3)cc12	i	0.67	0.0	-0.8	-9	0	-0.2	-7	2
Cc1nc(SCC(=O)N2CCOCC2)c2ccsc2n1	nt	0.74	3.8	-0.2	nt	nt	nt	-7	-5
Cc1cccc(N=Nc2c(N)n[nH]c2N)c1	i	0.65	13	0.4	5	15	0.1	93*	8
O=C(CSc1n[nH]c(=O)[nH]c1=O)Nc1ccc(SC(F)F)cc1	nt	0.69	1.1	-4.1	-5	-10	-0.4	99*	-4
COc1cccc(NC(=O)C(C)N2C(=O)c3ccccc3C2=O)c1 (stereo unspecified)	i	0.68	1.1	-2.5	3	7	0.4	-2	-1
CC(O)C(NC(=O)OCc1ccccc1)C(=O)OCc1ccccc1 (stereo unspecified)	i	0.67	0.6	-0.9	nt	nt	nt	nt	5
C=CCN1C=CC(=O)CC1	i	0.66	-2.8	0.3	9	10	-2.4	-27	17
COc1c2ccoc2nc2c(OC)c(OCC(O)C(C)(C)O)ccc12 (stereo unspecified)	nt	0.69&0.71	-267	-1.1	nt	nt	nt	-3	2
O=C(O)c1ccccc1CSc1nnc2c(n1)[nH]c1ccccc12	i	0.69	8.5	16	6	-1	-6.1	-6	7
CN1CCN(c2oc(/C=C/c3ccccc3)nc2C#N)CC1	i	0.7	-51	7.5	5	6	-1.0	-4	-3
NC(=O)CC(NC(=O)Cc1cccc2ccccc12)c1ccc(NCc2ccc(F)cc2)c([N+](=O)[O-])c1 (stereo unspecified)	i	nt	nt	17	12	20	-3.5	1	-5
CCCn1cc(CN2CCC(n3nccc3NC(=O)C(OC)c3ccccc3)CC2)c(C)n1 (stereo unspecified)	nt	0.69	-0.2	-4.5	0	4	0.0	-5	0
COc1cc(-c2cc(=O)c3c(O)cc(O)cc3o2)ccc1O	nt	0.67	3.5	0.4	nt	nt	nt	-10	nt
CC(C(=O)O)c1n[nH]c(=O)c2ccccc12 (stereo unspecified)	nt	0.66	0.9	-0.3	nt	nt	nt	-24	1
O=C(Nc1ccccc1N1CCN(C(=O)c2ccc(Cl)cc2)CC1)c1cccc(F)c1	i	0.71	0.7	-0.8	2	-2	3.7	-22	-4
COc1ccc(-c2c(C)c3cc(O)ccc3oc2=O)cc1OC	i	0.66	3.1	0.4	-10	-8	0.7	-1	3
COc1ccc(S(=O)(=O)N2CCOCC2)cc1NC(=O)CSc1nnc2c(n1)[nH]c1ccccc12	i	0.68	4.1	5.1	14	14	4.8	-4	7
COc1ccc(Oc2coc3cc(OC(=O)/C=C/c4ccc(F)cc4)ccc3c2=O)cc1	i	0.71	-0.3	-3.0	-3	2	-3.2	-2	-3
COc1ccc(C2(C)NC(=O)N(CC(=O)NC3(C#N)CCCCC3)C2=O)cc1 (stereo unspecified)	i	0.74	4.1	-3.7	2	13	0.9	-6	1

Reprinted from the part before: 4 compounds, followed by the next part.
SMILES	FGF22 binding	E coli growth	UCH37 DUB inh	HNF4A DNA FP	rRNA inh HTS	rRNA inh HTS OD600	rRNA inh HTS RFP	ALR H2O2 inh	B2AR ag
COc1ccc(-c2c(C)c3cc(O)ccc3oc2=O)cc1OC	i	0.66	3.1	0.4	-10	-8	0.7	-1	3
COc1ccc(S(=O)(=O)N2CCOCC2)cc1NC(=O)CSc1nnc2c(n1)[nH]c1ccccc12	i	0.68	4.1	5.1	14	14	4.8	-4	7
COc1ccc(Oc2coc3cc(OC(=O)/C=C/c4ccc(F)cc4)ccc3c2=O)cc1	i	0.71	-0.3	-3.0	-3	2	-3.2	-2	-3
COc1ccc(C2(C)NC(=O)N(CC(=O)NC3(C#N)CCCCC3)C2=O)cc1 (stereo unspecified)	i	0.74	4.1	-3.7	2	13	0.9	-6	1
COc1cccc(C(C)(O)c2nc(-c3ccccc3)cs2)c1 (stereo unspecified)	i	nt	nt	1.2	-46	-65	-12	nt	nt
COc1ccc(/C=C/C(=O)N2CCN(S(=O)(=O)c3ccccc3)CC2)cc1OC	i	0.67	-14	1.7	nt	nt	nt	-1	-4
CC(C)Oc1ccc(S(=O)(=O)N2CCOCC2)cc1NC(=O)CN1C(=O)NC2(CCCC2)C1=O	i	0.67	0.8	3.4	1	7	-2.3	-3	-3
O=C(OCc1ccccc1)N1CCC2CC1c1cc(N3CCN(C(=S)NCCc4ccccc4)CC3)ccc12 (stereo unspecified)	i	nt	nt	2.2	25	13	2.1	nt	nt
CCCCN(C)S(=O)(=O)c1cc(Br)cc2c1N(C(=O)C1CC1)CC2	nt	0.67	3.7	1.1	nt	nt	nt	-7	-14
COc1cc2c(cc1OC)C(c1cccc(Br)c1)CC(=O)N2 (stereo unspecified)	i	0.68	4.4	-0.3	-6	-4	-4.4	3	6
O=C(c1ccccc1)N1CCC(=O)N(C(CO)Cc2ccccc2)CC1 (stereo unspecified)	i	0.69	-1.5	5.2	11	8	4.2	0	-1
C=C1C(O)C[C@@H](C(C)C)N(CC(C)C)S1(=O)=O (stereo partly specified)	i	nt	5.7	0.0	6	-4	25	nt	-5
N#C/C(=C\c1c[nH]c2ccccc12)C(N)=O	i	0.67	10	0.1	0	0	-1.5	-4	2
Fc1ccc(CSc2nc3ccccc3[nH]2)cc1	nt	0.67	5.3	4.5	nt	nt	nt	-5	-14
O=C(NCCN1CCN(c2ccccc2)CC1)c1cccc(Br)c1	nt	0.67	-0.6	3.3	nt	nt	nt	nt	1
O=S(=O)(Nc1nc2ccccc2nc1Nc1ccc2c(c1)OCO2)c1ccccc1	nt	0.72	0.1	-4.9	nt	nt	nt	-7	-1
CC(=O)Nc1c(C)ccc(CNC(=O)COc2ccc(F)cc2)c1C	i	0.7	4.2	3.6	5	5	-1.4	-11	4
COC(=O)Cc1n[nH]c(=O)c2ccccc12	+	0.72	5.7	-2.5	20	5	0.9	-4	2
COc1ccc(C=O)c2[nH]c3c(Cl)ncnc3c12	i	0.67	-49	-1.2	-2	3	1.0	nt	17
O=C(NCc1ccccc1F)C1CCCN1S(=O)(=O)c1ccc(F)cc1 (stereo unspecified)	i	0.62	3.9	-1.4	-1	8	2.2	16	8
C=CCn1c(Cc2ccc(OCC)cc2)nnc1SCC(N)=O	nt	0.68	3.5	1.4	nt	nt	nt	-30	-7
O=C(NCc1ccco1)c1cccc(N2CCCC2=O)c1	nt	0.65	1.7	27	nt	nt	nt	-1	-6
COc1ccccc1C1CC(=O)Nc2cc(C)c(C)cc21 (stereo unspecified)	i	0.66	3.2	-0.9	-6	-4	2.0	0	3
C(=C\c1ccccc1)/CNCC1CCCO1 (stereo unspecified)	i	0.68	3.7	2.9	0	0	-0.9	-41	-5
O=C(COC(=O)c1ccccc1)NCc1ccco1	nt	0.68	2.1	-8.2	nt	nt	nt	-5	-11
O=C(N/N=C/c1ccco1)c1cccc(NC(=O)c2cccc(Cl)c2)c1	i	nt	nt	0.3	4	4	3.7	-7	9
CSc1ccc(/C=C(\NC(=O)c2ccccc2)C(=O)NCCN2CCOCC2)cc1	i	0.66	4.4	1.1	-1	4	-1.5	-2	-10
CC1(C)CC(=O)C(C2C3=C(CC(C)(C)CC3=O)Oc3ccccc32)C(=O)C1 (stereo unspecified)	i	0.65	7.1	-1.0	-22*	-12*	0.9*	6	9
COc1ccc(Cl)cc1NC(=O)NC(C)C	i	0.68	2.4	-0.8	5	5	3.3	1	10
CN=CC1=C(O)C(C(=O)OC)C(C)(C)CC1=O (stereo unspecified)	i	0.64	1.8	4.7	15	3	-3.5	7	-1
COc1ccc(N(CC(=O)N2CCc3ccccc32)S(=O)(=O)c2c(C)n[nH]c2C)cc1	nt	0.69	5.1	-1.6	nt	nt	nt	-15	-24
CCC(C)c1ccccc1N1CC(C(=O)N2CCN(S(=O)(=O)c3ccccc3Br)CC2)CC1=O (stereo unspecified)	i	0.69	3.4	-1.2	-10	-21	5.6	-3	10
COc1cccc(C#Cc2cnc3c(c2)C(=O)N([C@@H](C)CO)C[C@H](C)[C@H](CN(C)C(=O)C2CCC2)O3)c1	i	nt	nt	0.4	-4&1	-7&12	-4.9&-2.9	nt	nt
O=C(c1ccc(NS(=O)(=O)c2cccc([N+](=O)[O-])c2)cc1)N1CCCCCC1	i	0.7	0.4	-1.1	-4	1	-2.8	-21	1
Cn1c(SCc2nc3ccccc3c(=O)[nH]2)nc2ccccc21	i	0.7	-13	1.3	16	21	1.5	1	1
O=C1CSc2ccc(S(=O)(=O)NCc3ccccc3Cl)cc2N1	i	0.71	0.8	-1.7	-2	-5	1.1	-7	14
Cc1ccc(S(=O)(=O)Nc2ccc3c(c2)CCC3)cc1	nt	0.61	3.8	-6.3	nt	nt	nt	nt	17
COc1ccc(CCNC(=O)COc2ccc3c(C)cc(=O)oc3c2)cc1OC	i	0.67	-8.6	0.4	-4	7	1.2	-19	-4
Oc1ccc2ccccc2c1/C=N/Nc1ccccc1	nt	nt	nt	0.7	nt	nt	nt	-209	5
Cc1ccc(C(=O)NCC(=O)N(C)Cc2cccc(F)c2)s1	i	0.61	2.2	5.4	3	13	-1.3	nt	-4
CCCCn1c(N)c(N(CC(C)C)C(=O)CSc2nnc(C)n2-c2ccccc2)c(=O)[nH]c1=O	i	0.7	3.5	2.5	5	22	-0.6	nt	0
CCOC(=O)[C@H]1[C@H]2COc3ccc(C)cc3[C@@H]2N2C(=O)c3ccc(C)cc3NC(=O)[C@@]12C	i	nt	-0.6	3.2	-12	-14	-0.4	7	-6
CCOC(=O)C1(Cc2cccc(F)c2)CCN(C(=O)Cn2cnnn2)CC1	i	0.7	4.8	0.9	5	3	2.7	-12	-5
Cc1ccc(CN2CC(C(=O)Nc3ncc(C)s3)CC2=O)cc1 (stereo unspecified)	i	0.68	3.0	1.3	3	3	3.2	nt	-4
O=C(Cc1ccc(Cl)cc1)N/N=C/c1c(Cl)cccc1Cl	nt	nt	nt	-1.5	nt	nt	nt	-5	6
CCCc1cc(Nc2ccc(C)cc2)n2ncnc2n1	i	0.61	3.0	-4.0	-7	-5	0.0	0	7
CC(=O)Nc1ccccc1-c1nc2ccccc2nc1OCC(=O)c1ccc(Cl)cc1	nt	0.7	2.5	-0.8	nt	nt	nt	-5	20
COc1ccc(NC(=O)Nc2cccc3c2O[C@H](CN(C)Cc2ccc(-c4ccccc4)cc2)[C@@H](C)CN([C@H](C)CO)C3=O)cc1	i	0.75	1.3	-5.4	1&-34	2&-40	-0.2&26	-4	4
O=C(O)CCN1C(=O)c2ccncc2C1=O	nt	0.69	3.4	0.1	nt	nt	nt	-29	13
COc1ccc(C(=O)NCC(=O)N/N=C/c2c(C)[nH]c3ccccc23)cc1	i	nt	nt	0.4	-2	-5	-1.6	4	1
CN(C)C(=O)c1ccc(-n2cccn2)nc1	i	0.69	5.2	1.6	12	6	0.9	-2	4
COc1ccc(CCN(C)C(=O)c2cc(-c3ccccc3)nc3ccc(C)cc23)cc1OC	i	0.7	1.3	1.9	10	4	5.2	-2	0
CCc1ccc(NC(=S)N(CCN2CCCCC2)Cc2ccco2)cc1	nt	0.67	2.2	0.7	nt	nt	nt	-3	8

These rows are one share of the data; rates above refer to the full screens.
